H5N1 antiviral – MDCK cell protection from H5N1 avian flu | cytopathic effect, luminescence, 72 h; stronger effect = higher value; no value below 0 was filed and about half of the inactive calls have no number; reference of the scale not given here | inhibition, % at 50 µM | actives 0.07% (n = 96,000); in the data active = inhibition above about 25%
Active calls of the source: *; i = inactive. An excerpt. The share of hits here may be higher or lower than overall.

SMILES	H5N1 antiviral
COc1ccc(NC(=O)CSc2nnc(Cc3cccn3C)n2-c2ccc(F)cc2)cc1OC	i
O=C(O)C1C2CCC(C2)C1C(=O)Nc1cc(F)ccc1F (configuration not stated)	i
COc1ccc(-n2c(=O)cc(N3CCOCC3)[nH]c2=O)cc1	i
CC1=C(C(=O)OC2CCCCCCC2)C(c2cc3c(cc2Br)OCO3)CC(=O)N1 (configuration not stated)	6.3
CCOc1ccc(N2C(=O)NC(Cc3c[nH]c4ccccc34)C2=O)cc1 (configuration not stated)	0.2
CCCc1nn2c(=O)c(C(c3cccc(Cl)c3)c3c(O)nc4sc(CCC)nn4c3=O)c(O)nc2s1	i
Cc1ccc2nc(CCc3nc4ccc(C)cc4o3)oc2c1	i
COc1ccccc1OCCCn1c(=O)oc2ccc(C)cc21	0.3
COc1ccc(N(C)C(=O)Nc2ccc3c(c2)nnn3C)cc1	0.1
Cc1nc(=O)c(-c2ccccc2)c(C)n1-c1cccc(C(=O)O)c1	i
CCC(CC)c1nnc(NC(=O)c2ccc3ccccc3n2)s1	i
CCN(CC)C(=O)C(C)N(C#N)c1nc(SC)nc(N(C)C)n1 (configuration not stated)	5.1
CC(=O)N1CCN(S(=O)(=O)c2ccc(S(=O)(=O)NCC(C)C)cc2)CC1	i
Cc1cccc(S(=O)(=O)c2c(N)n(/N=C/c3cccnc3)c3nc4ccccc4nc23)c1	1.9
Clc1cccc(-c2nn3c(Cn4cnc5ccccc54)nnc3s2)c1	i
CCSc1nc2ccccc2c(=O)n1OCC(=O)OC	1.6
CCS(=O)(=O)N1Cc2ccccc2CC1C(=O)Nc1ccc(C)cc1 (configuration not stated)	0.3
COc1cc(C2C(C#N)=C(N)Oc3cc(C)oc(=O)c32)cc2c1OCO2 (configuration not stated)	i
COCCN(CCOC)C(=O)CC(=O)N(CCOC)CCOC	i
COC(=O)c1ccc(S(=O)(=O)N2CCCCCC2)cc1	i
CC(c1ccccc1)C1C(C#N)=C(N)OC2=C1C(=O)CCC2 (configuration not stated)	4.3
O=C(c1cc(Cl)c(=O)n(Cc2ccc(Cl)cc2)c1)N1CCOCC1	i
Cc1nc2cc(C(=O)OCC(=O)N(CC(C)C)C3CCS(=O)(=O)C3)ccc2n1-c1ccccc1 (configuration not stated)	2.3
CCn1c(SC)nnc1-c1c[nH]c2ccccc12	i
Cc1nccc2[nH]c(=O)c(C(=O)NC3CCCCC3C)cc12 (configuration not stated)	0.9
O=C1CC(c2cccc(Cl)c2)Cc2nc(N3CCN(c4ccccc4)CC3)ncc21 (configuration not stated)	0.1
O=C(c1cc([N+](=O)[O-])ccc1N1CCCCC1)N1CCCCC1	0.5
Cc1cccc(NC(=S)NC(NC(=O)c2ccco2)C(Cl)(Cl)Cl)c1 (configuration not stated)	i
COCCCN1C(=O)C(=O)/C(=C(/O)c2ccc(OC(C)C)c(C)c2)C1c1ccncc1 (configuration not stated)	i
COCCNC(=O)C1c2cc(OC)c(OC)cc2C(=O)N(C)C1c1cccnc1 (configuration not stated)	i
COc1ccccc1OCC(=O)Nc1sc2c(c1C(=O)NCC1CCCO1)CCC2 (configuration not stated)	i
O=C(NC12CC3CC(CC(C3)C1)C2)c1cccnc1	1.3
O=c1[nH]c(N/N=C/c2ccccc2)nc2ccccc12	0.5
Cc1cc(C(=O)CSc2nc3ccc(Cl)cc3[nH]2)c(C)n1C	i
O=C(Nc1ccccc1)C1=C(N2CCOCC2)/C(=C/c2cccnc2)CC1	i
CCCC(=O)NC1C2CC3CC(C2)CC1C3 (configuration not stated)	0.6
CC(C)Cc1nc(SCC(=O)Nc2ccc(S(N)(=O)=O)cc2)n[nH]1	1.1
Cc1ccc(C2=NN3C(C(=O)c4ccccc4)Oc4ccccc4C3C2)cc1 (configuration not stated)	i
COCCNC(=O)C(c1ccc(Cl)cc1)N(C(=O)CCC(=O)Nc1ccccn1)C1CCCC1 (configuration not stated)	i
CC(C)N1C(=O)c2ccc(C(=O)O)cc2C1=O	2.0
CC(C)N(Cc1nc(-c2ccc(Cl)cc2)no1)C(=O)CN(C)S(=O)(=O)c1ccc(Cl)cc1	3.0
CCn1c(CSc2nncn2-c2ccc(OC)cc2)nc2cc(S(=O)(=O)N(C)C)ccc21	3.2
Cc1ccccc1S(=O)(=O)Cc1ccc(C(=O)NCc2cccnc2)o1	0.6
CCCOc1ccc(NC(=O)C2CC(=O)N3CCCN=C3S2)cc1 (configuration not stated)	0.8
CCCOc1cc(C)c(S(=O)(=O)NCCOC)cc1C	i
Cc1ccc(NC(=O)CSc2nc3nc(C)cc(C)c3c(=O)[nH]2)cc1	0.8
CS(=O)(=O)Nc1nc2n(n1)C(c1ccccc1)C=C(c1ccc(Br)cc1)N2 (configuration not stated)	0.3
NC(=S)Nc1cccc2cccnc12	i
O=C(c1csc2c1CCCCC2)N1CCN(c2ncccn2)CC1	i
CCCNC(=O)C(Cc1ccccc1)NS(=O)(=O)c1ccc2c(c1)c(=O)n(C)c(=O)n2C (configuration not stated)	i
Cc1nc(NC(=O)CSc2nc3cccnc3n2Cc2ccccc2)sc1C	i
Cc1ccc2nc(SCc3nnc(-c4ccccc4)o3)[nH]c2c1	0.6
O=C(c1ccccc1)C1CN(c2ccccc2)CC1c1ccc(Cl)cc1 (configuration not stated)	1.4
COC(=O)c1ccc(Nc2nc(C)cc(=O)[nH]2)cc1	i
Cc1ccc(C(=O)C2=C(O)C(=O)N(Cc3ccccc3)C2c2cccnc2)o1 (configuration not stated)	i
Cc1ccccc1NC(=O)CSc1nnc(-c2ccoc2C)n1CCc1ccccc1	i
CC(C)(C)n1nnnc1C(c1cccnc1)N1CCN(c2ccccc2)CC1 (configuration not stated)	2.0
O=C(Nc1nc(-c2ccc(Cl)s2)cs1)c1ccncc1	0.3
COc1ccc(CCNS(=O)(=O)c2ccc3c(c2)CCN3C(=O)C2CC2)cc1OC	1.1
O=C(O)C1CCCCC1C(=O)Nc1ccc(Cl)cc1Cl (configuration not stated)	i

Quoted from the results shown (2 entries):
SMILES	H5N1 antiviral
NC(=S)Nc1cccc2cccnc12	i
O=C(c1csc2c1CCCCC2)N1CCN(c2ncccn2)CC1	i

The listing continues.
SMILES	H5N1 antiviral
Nc1c(Cl)cc(Cl)cc1C(=O)OCC(=O)N1CCCC1	i
CCOC(=O)NC1(NCc2ccccc2)Oc2ccccc2O1	i
CCCNC(=O)Cn1cnc2sc(C(=O)NCCN(CC)CC)c(C)c2c1=O	i
CCOC(=O)c1cc(-c2cc3ccccc3o2)nc2c1c(=O)[nH]c(=O)n2CCOC	2.0
CCCCCCOC(=O)C[N+](C)(C)CCOC1CC2CCC1(C)C2(C)C (configuration not stated)	i
COC(=O)/C(=C/Nc1ccccc1)[N+](=O)[O-]	i
Cc1ccc(NC(=O)C(=O)NNC(=O)c2ccccc2C)cc1Cl	1.2
CCCC(=O)Nc1ccc(NC(=O)c2ccco2)c(OC)c1	0.8
N#CC(C(=O)c1ccco1)c1ccccn1 (configuration not stated)	2.4
CC(O)C1CCC2C3CC[C@H]4CC(O)CCC4(C)C3CC3(OCCO3)C12C (some centres not stated)	0.4
O=C(/C=C/c1ccc(OCCCF)cc1)NCc1ccc(Cl)cc1	2.7
CC(C)CNC(=O)CCc1c[nH]c2ccccc12	i
O=C(Oc1cccc2c(O)cccc12)c1ccccc1	0.2
CC1CCCCC1NC(=O)C1CCN(S(=O)(=O)c2cccc3nsnc23)CC1 (configuration not stated)	1.7
COc1ncnc2sc3c(c12)CCCC3	i
NC(=O)c1ccccc1OCC(=O)NS(=O)(=O)c1ccc(Cl)cc1	i
COc1cc2c(cc1OC)CN(C(=O)NS(=O)(=O)c1ccc(C)cc1)CC2	1.4
NC(=O)C1CCN(c2nnnn2-c2ccccc2)CC1	i
N/C(=N\N=C/c1ccc(-c2ccc(O)c(C(=O)O)c2)o1)N[N+](=O)[O-]	i
CCCC(C(=O)Nc1nccs1)c1ccccc1 (configuration not stated)	i
O=C(c1oc(=O)c2ccccc2c1-c1ccccc1)N1CCOCC1	1.1
COc1ccc(S(=O)(=O)N2CC(C(=O)O)Oc3ccc(CC(=O)O)cc32)cc1 (configuration not stated)	0.2
COc1ccc(C2(O)CCN(CC(=O)Nc3nccs3)CC2)c(OC)c1	1.7
COCCNC(=O)c1onc(CSc2ccccc2C)c1C(=O)O	0.2
CCCC(=O)N1CCN(c2ccc(NC(=O)c3sc4ccccc4c3Cl)cc2)CC1	i
O=C(NCCc1ccccc1)c1ncn[nH]1	0.4
N=c1n(Cc2ccccc2)c2ccccc2n1CC(O)c1ccccc1 (configuration not stated)	i
CC1(C)c2ccccc2N2CC(=O)N(CC(N)=O)C21C (configuration not stated)	i
O=C(Cn1ccc2ccccc2c1=O)NCCC(=O)N1CCN(C2CCCCC2)CC1	0.7
COc1ccc(C(=O)NCc2nnc(SCC(=O)N3CCCCC3)o2)cc1OC	0.1

Laid out differently: 17 of the compounds above.
| SMILES | H5N1 antiviral |
| --- | --- |
| CC1CCCCC1NC(=O)C1CCN(S(=O)(=O)c2cccc3nsnc23)CC1 (configuration not stated) | 1.7 |
| COc1ncnc2sc3c(c12)CCCC3 | i |
| NC(=O)c1ccccc1OCC(=O)NS(=O)(=O)c1ccc(Cl)cc1 | i |
| COc1cc2c(cc1OC)CN(C(=O)NS(=O)(=O)c1ccc(C)cc1)CC2 | 1.4 |
| NC(=O)C1CCN(c2nnnn2-c2ccccc2)CC1 | i |
| N/C(=N\N=C/c1ccc(-c2ccc(O)c(C(=O)O)c2)o1)N[N+](=O)[O-] | i |
| CCCC(C(=O)Nc1nccs1)c1ccccc1 (configuration not stated) | i |
| O=C(c1oc(=O)c2ccccc2c1-c1ccccc1)N1CCOCC1 | 1.1 |
| COc1ccc(S(=O)(=O)N2CC(C(=O)O)Oc3ccc(CC(=O)O)cc32)cc1 (configuration not stated) | 0.2 |
| COc1ccc(C2(O)CCN(CC(=O)Nc3nccs3)CC2)c(OC)c1 | 1.7 |
| COCCNC(=O)c1onc(CSc2ccccc2C)c1C(=O)O | 0.2 |
| CCCC(=O)N1CCN(c2ccc(NC(=O)c3sc4ccccc4c3Cl)cc2)CC1 | i |
| O=C(NCCc1ccccc1)c1ncn[nH]1 | 0.4 |
| N=c1n(Cc2ccccc2)c2ccccc2n1CC(O)c1ccccc1 (configuration not stated) | i |
| CC1(C)c2ccccc2N2CC(=O)N(CC(N)=O)C21C (configuration not stated) | i |
| O=C(Cn1ccc2ccccc2c1=O)NCCC(=O)N1CCN(C2CCCCC2)CC1 | 0.7 |
| COc1ccc(C(=O)NCc2nnc(SCC(=O)N3CCCCC3)o2)cc1OC | 0.1 |

More entries.
SMILES	H5N1 antiviral
O=[N+]([O-])c1ccc(N2CCN(Cc3ccccc3)CC2)c(S(=O)(=O)N2CCOCC2)c1	0.8
CCc1ccc(C2C(C(=O)O)c3ccccc3C(=O)N2C)cc1 (configuration not stated)	0.4
Cc1ccc(C(=O)N2CCN(c3ccc(NC(=S)NC(=O)Cc4ccccc4)cc3)CC2)cc1	4.5
Cn1c(SCc2ccccc2)nnc1-c1c[nH]c2ccccc12	0.5
O=C1CC(N2CCC(O)CC2)C(=O)N1c1ccc(Br)cc1 (configuration not stated)	i
O=C(NCC1CCCO1)c1cc2n(n1)C(C(F)(F)F)CC(c1ccc(F)cc1)N2 (configuration not stated)	0.2
Clc1ccc(CSc2nnnn2-c2ccc3c(c2)OCO3)c(Cl)c1	1.4
O=C1NC2(CCCCC2)C(=O)N1CCS(=O)(=O)Oc1ccccc1	0.2
Cn1c(=N)c(S(=O)(=O)c2ccc(F)cc2)cc2c(=O)n3ccccc3nc21	i
CCN(CCCNC(=O)CC(C(=O)N1CCc2ccccc21)n1ccnc1)c1ccccc1 (configuration not stated)	0.9
S=C(NCCC(c1ccccc1)c1ccccc1)Nc1ccc(Cl)cc1	i
O=C(NCc1ccco1)c1ccc(CS(=O)(=O)Cc2ccc(F)cc2)o1	i
O=C(c1cnn2c(C(F)(F)F)cc(-c3ccc4c(c3)OCO4)nc12)N1CCCCC1	1.1
CCCCOC(=O)CSc1nc2c(c(=O)[nH]c(=O)n2C)n1C/C=C(\C)Cl	0.2
COc1cc(NC(=O)c2nccnc2C(=O)O)cc(OC)c1	0.7
COC(=O)CCN(C)CCC(=O)OC	i
Cc1ccc(C)c2[nH]c(=O)c(CCNC(=O)CC(C)C)cc12	1.0
Cc1nn2cnc3sc4c(c3c2nc1=O)CCCC4	i
Cc1csc(NC(=O)C2CCCN2C(=O)Oc2ccccc2)n1 (configuration not stated)	1.7
O=C(COc1ccccc1)Nc1nc(-c2cccs2)cs1	i
COc1ccc(NC(=O)NC(C(F)(F)F)C(F)(F)F)cc1	i
CCCCn1ccnc1C(=O)c1cccc(S(=O)(=O)N2CC(C)CC(C)C2)c1 (configuration not stated)	i
CCc1c(-c2ccccc2)nc(N)c(C#N)c1-c1cccs1	0.5
Cc1ccc(C(=O)N/N=C/c2sc(=O)n(Cc3cccc(C(=O)O)c3)c2Cl)cc1	i
CCCCS(=O)(=O)Nc1ccc2ncn(C)c(=O)c2c1	i
CC(C)(C)NC(=O)CSc1nc(O)cc(=O)n1-c1ccccc1	i
Cc1nnc(SCCCn2c(N3CCCCC3)nc3c2c(=O)[nH]c(=O)n3C)s1	4.1
Cc1ccc2c(c1)CNc1ccccc1O2	0.3
Cc1onc(-c2ccccc2Cl)c1C(=O)Nc1ccc(-c2nnc3n2CCCCC3)cc1	i
O=C(Nc1ccccc1)C1CCN(C(=O)c2ccccc2)CC1	i
COc1cc(C)c(C(N)=O)c(OC)n1	1.1
COC(=O)c1ccccc1NC(=O)Nc1ccc2c(c1)OCO2	i
O=C1C(C=NCc2ccccn2)=C(O)c2ccccc21	i
O=C(NCCCCNC(=O)C1CCCC1)C1CCCC1	0.8
FC(F)(F)c1nc2ccccc2nc1N/N=C/c1ccc(Cl)cc1	3.6
Nc1nc(Br)c2c(F)cccc2c1-c1ccccc1	i
CC1CCN(C(=O)CCNC(=O)Cn2cnc3sc4c(c3c2=O)CCCC4)CC1	0.8
C=CCSC1=C(C#N)C(c2ccccc2C)CC(=O)N1 (configuration not stated)	0.2
COc1cccc(CSc2nc3ccccc3cc2C=O)c1	i
CCN(CC)S(=O)(=O)c1ccc(Cl)c(C(=O)Oc2cccnc2)c1	2.0
CCOC(=O)C(C(=O)OCC)N(C#N)c1nc(C)cc(C)n1	0.4

Screening data as filed in PubChem.
